ClpP mod: qHTS Assay for Activators of ClpP | ATP-dependent Clp protease proteolytic subunit (Bacillus subtilis (strain 168)), P80244 | purified B. subtilis ClpP, FRET peptide cleavage, 20 min | Potency, µM (doses to about 57.5 µM), without a hit: at the top dose activity change, negative = active | hit rate 1.9% among 340,000 | AID 651965, 2013; active = well fitted falling curve with a large enough effect; inconclusive = small, poorly fitted or top-dose-only effect; inactive = no such curve, though single readings can be large or run the other way; also: potency is read from the fitted curve at half-maximal effect; the source files actives as falling curves though it sought activators and does not explain the sign; nearly all actives have a fitted effect of over 65% in size; many hits overshoot -100%
Target sequence (P80244 whole entry, looked up): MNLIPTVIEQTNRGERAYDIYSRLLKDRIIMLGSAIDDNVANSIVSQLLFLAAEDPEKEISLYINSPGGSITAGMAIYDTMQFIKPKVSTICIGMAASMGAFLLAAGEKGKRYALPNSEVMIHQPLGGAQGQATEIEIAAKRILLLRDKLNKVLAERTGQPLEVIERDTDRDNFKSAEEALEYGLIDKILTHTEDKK
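Buffer: 100 mM Tris/HCl pH8, 100 mM KCl, 0.05% low protease BSA, 2.5% glycerol, 0.01% Tween-20. ClpP 10 microg/mL final; 20 min RT; delta FRET normalized to ADEP and DMSO controls.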
gsp antag: antagonizes gsp, the McCune-Albright syndrome mutation; gsp-mutant cells, cAMP HTRF, 30 min; control for the full effect not named in the record; Potency, µM (doses to about 76.9 µM), for inactives: at the highest dose activity change, negative = inhibition, actives largely listed as inhibitors; hit rate 0.4% among 340,000; active = falling curve of any shape with a large fitted effect; inconclusive = falling curve, mostly with a smaller effect; inactive = flat or rising curve; cell line not stated here;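 also: intracellular cAMP measured with PDE inhibitor Ro 20-1724 present during compound exposure; potency is read from the fitted curve at half-maximal effect; % is scaled to controls: 0 for no effect and ±100 for the full control effect; nearly all actives have a fitted effect of over 65% in size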
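Cells, 2000/well, grown 16–24 h in DMEM 10% FBS with 0.5 mg/ml G418, then compounds plus […] (300 uM addition stock), 30 min at 37C. cAMP read by HTRF (cAMP-d2 and anti-cAMP antibody-K in lysis buffer) after 30 min RT.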
Menin MLL FP FL: displaces fluorescein MLL peptide from human menin; FP activity change, % at 61.4 µM; 290,000 tested, under 10 active; Fluorescence polarization, fluorescein-MLL peptide displacement from menin; inconclusive = falling polarisation curve, or a change in total fluorescence; inactive = total fluorescence flat and polarisation flat or rising; no compound was filed as active; the % refers to the polarisation; negative = inhibition;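 also: % of control where 0% means no effect; inhibitors lower the polarisation; unlabelled MLL peptide was the positive control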
gsp ag: gsp mutant agonism; gsp mutant cells, cAMP HTRF, 30 min; control for the full effect not named in the record; Potency, µM (doses to about 76.9 µM), inactives show at the top dose activation (cAMP increase), usual class: activators; hit rate 0.13% among 340,000; AID 624287; active = well fitted activation curve with a large enough effect; inconclusive = small, poorly fitted or top-dose-only effect, or another doubt; inactive = no such curve, though single readings can be large or run the other way; cell line not stated here;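 also: phosphodiesterase inhibitor Ro 20-1724 added with compounds to block cAMP breakdown; potency is read from the fitted curve at half-maximal effect; nearly all actives have a fitted effect of over 60% in size; about a fifth of the inactives were tested at one dose only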
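Cells stably selected in G418 were plated at 2000/well, grown 16-24 hr, then given compounds in DMSO with the PDE inhibitor […] (300 uM solution added) for 30 min at 37C; cAMP was read by HTRF.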
Sfp PPTase inh: inhibitors of Bacillus subtilis Sfp phosphopantetheinyl transferase | Biochemical Sfp PPTase activity, qHTS | hit rate 3.5% among 310,000 | Q9F4F7 | Potency, µM, for inactives: max response, negative = inhibition, actives largely listed as inhibitors; active = well fitted inhibition curve with a large enough effect; inconclusive = small, poorly fitted or top-dose-only effect, or another doubt; inactive = no such curve, though single readings can be large or run the other way;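 also: the enzyme is Sfp with the accession as filed and its product quenches rhodamine fluorescence; potency is read from the fitted curve at half-maximal effect; 0% = enzyme reaction without inhibitor and -100% = no enzyme wells; top concentration of the series not given in the record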
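With Hepes-Na pH 7.6 buffer containing 10 mM MgCl2, Sfp (15 nM) modified BHQ-2-YbbR (12.5 uM) using rhodamine-CoA (5 uM). Two reads 30 minutes apart at 525/598 nm yielded each well's rate.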
PINK1 expr mod: changes PINK1 expression; PINK1 immunofluorescence, high-content cytometry, 24 h; Potency, µM (top dose mostly 76.6 µM), for the others: top-dose activation (PINK1 increase), usual class: activators; hit rate 0.2% among 410,000; active = well fitted activation curve with a large enough effect; inconclusive = small, poorly fitted or top-dose-only effect; inactive = flat fitted curve, though single readings scatter; cell line not stated here;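 also: potency is read from the fitted curve at half-maximal effect; % of control where 0% means no effect; nearly all actives have a fitted effect of over 65% in size; a mitochondrial uncoupler was the plate control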
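PINK1 protein level read as immunofluorescence by microplate cytometer in a fixed, stained stable cell line after 24 h exposure to five compound concentrations, with CCCP as control.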
D2 ag: human D2 receptor agonism in beta-arrestin assay; P14416; DiscoveRx PathHunter D2 beta-arrestin, luminescence, 90 min; 100% = 57 uM dopamine signal; activation, % (concentration not given with the values); hit rate 0.084% among 360,000; in the data active = activation above about 40%; inconclusive = about 15% to 40%; inactive = below about 15%; also: compound concentration not given in the record; the text of the record calls up to 30% inactive
Target sequence (P14416 whole entry, looked up): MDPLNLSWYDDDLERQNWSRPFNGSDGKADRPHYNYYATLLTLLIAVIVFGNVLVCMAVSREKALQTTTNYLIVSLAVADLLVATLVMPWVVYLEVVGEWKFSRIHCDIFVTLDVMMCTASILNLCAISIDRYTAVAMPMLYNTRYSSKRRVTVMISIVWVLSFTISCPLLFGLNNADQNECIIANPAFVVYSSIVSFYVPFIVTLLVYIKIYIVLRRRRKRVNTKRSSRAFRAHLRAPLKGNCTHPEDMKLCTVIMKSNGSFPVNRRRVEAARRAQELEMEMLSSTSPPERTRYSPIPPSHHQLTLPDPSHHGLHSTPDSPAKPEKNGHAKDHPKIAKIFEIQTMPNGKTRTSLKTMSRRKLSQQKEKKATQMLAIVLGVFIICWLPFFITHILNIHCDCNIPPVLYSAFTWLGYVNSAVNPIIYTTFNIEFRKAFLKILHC
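DiscoveRx PathHunter D2 beta-arrestin cells (2,100/well) attached overnight, then compound-stimulated 90 min at 37 C in HBSS/10 mM HEPES/0.1% Tween-20 buffer; beta-galactosidase complementation read by luminescence after 1 h at ambient temperature. Dopamine 57 uM final (EC100) as control.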
Active calls of the source: *; u = inconclusive; x = no result given; & = joins results of further samples; [ ] = remark or other dose.

SMILES	ClpP mod	gsp antag	Menin MLL FP FL	gsp ag	Sfp PPTase inh	PINK1 expr mod	D2 ag
N#CC1=C(SCC(N)=O)NC(=O)CC1c1ccccc1Cl (configuration not stated)	-0.3%	-7%	1.6	u	-1%	1.9%	-1.4
O=C(O)c1cc(N/N=C/c2c(O)ccc3ccccc23)ccc1Cl	-2.7%	-14%	-2.6	-34%[inhibitor]	-23%	-0.2%	12
CC(C)n1c(CN(C)Cc2ccccc2)nc2c1c(=O)n(C)c(=O)n2C	x	u	-2.1	-14%	1%	3.4%	7.8
CCOc1[nH]n(-c2ccc(Cl)cc2)c(=O)c1C=Nc1ccc(O)cc1	-50%	-9%	2.4	-23%	-3%	19%	4.9
O=C(COC(=O)c1sc2cc(F)ccc2c1Cl)Nc1ncc(Cl)cc1Cl	-5.4%	3%	-1.0	-69%[inhibitor]	-11%	4.0%	-0.6
COc1ccccc1NC(=O)c1ccc(N2CC3CC(C2)c2cccc(=O)n2C3)c(NC(=O)c2ccncc2)c1 (configuration not stated)	-2.2%	-4%	3.6	u	-29%	2.2%	1.2
COCc1cc(OC)nc(-c2csc(C)n2)n1	-0.2%	2%	2.0	-32%	-6%	0.4%	-0.9
COc1ccc(S(=O)(=O)NCCC(=O)OCC(=O)NC2CC2)cc1	2.9%	-1%	x	-5%	x	1.9%	-1.3
COc1ccc(CCNC(=O)c2ccn[nH]2)cc1OC	-2.2%	2%	2.5	26%	9%	-0.8%	0.4
O=C(Nc1cc(S(=O)(=O)N2CCCC2)ccc1OCC(F)(F)F)c1ccccc1F	39%	4%	2.2	-4%	15%	14%	-2.4
CN1CCN(C(=O)Cn2c(=O)oc3cc(S(=O)(=O)NCc4ccccc4)ccc32)CC1	0.9%	0%	-1.4	0%	23%	2.2%	-5.7
O=C1c2cccnc2Oc2ccc(Cl)cc2N1Cc1ccc(F)cc1	1.0%	-9%	7.4	-22%	5%	3.6%	5.4
O=S1(=O)C=CC(N2CCOCC2)C1 (configuration not stated)	4.2%	6%	-2.2	24%	-2%	0.3%	-1.7
Cc1nc2ccc(S(=O)(=O)N(C)CC(=O)NC(C)c3ccccc3)cc2s1 (configuration not stated)	1.1%	6%	x	-27%	10%	-0.8%	-2.1
Cc1cc(C)c(C(=O)/C=C/c2ccc(C(C)C)cc2)c(=O)[nH]1	0.6%	14%	4.2	u	14%	0.5%	-2.3
COc1ccc(N=C2NC(=O)/C(=C/C=C/c3ccccc3)S2)cc1	-0.6%	-26%	3.2	16%[15.4 µM]	1%	21%	6.4
O=C(Cc1ccccc1)NCCS(=O)(=O)N1CCN(c2cccc(Cl)c2)CC1	1.0%	-7%	x	4%	x	3.4%	-4.2
CCCCN(C(=O)c1ccc(N2CCCC2=O)cc1)c1c(N)n(CCCC)c(=O)[nH]c1=O	-1.6%	10%	x	-88%	x	7.0%	1.3
COc1cccc2c1OC1(C)CC2NC(=O)N1c1cccc(C(=O)N2CCN(c3ccccn3)CC2)c1 (configuration not stated)	-12%	-11%	-3.2	-4%	6%	3.4%	-2.3
Cc1ccccc1C(=O)NNC(=O)c1ccc(Br)cc1	-1.3%	-2%	-0.3	-2%	13%	0.6%	-6.0
COc1ccc(/C=N/NC(=O)c2ccc3c(c2)OCO3)cc1	-9.9%	1%	11	u	-4%	5.1%	7.1
CN(C)/C=C/C(=O)c1ccc([N+](=O)[O-])c(CS(=O)(=O)c2ccccc2)c1	x	-19%	2.7	u	16%	1.4%	5.4
O=C(CSc1ccccc1)N1CCN(S(=O)(=O)c2ccccc2)CC1	-6.6%	-14%	x	11%[15.4 µM]	19%	0.1%	-1.5
COc1cccc(OC)c1C(=O)N1CC(C)OC(C)C1 (configuration not stated)	-0.5%	4%	1.5	6%	9%	-4.3%[38.3 µM]	-1.6
O=C1/C(=C/c2ccccc2)Nc2ccccc21	0.1%	6%	u	14%	-17%	13%[38.3 µM]	-1.5
Cc1cc(NC(=O)CN2CCC(C)CC2)no1	-2.6%	14%	-0.3	u	40µM*	0.3%	-5.8
Cc1cc(C)nc(NC(=NCc2ccc3c(c2)OCO3)NC(=O)Nc2ccccc2)n1	-14%	-4%	0.5	-5%	-13%	14µM*	-1.1
Cc1ccc(N(CC(=O)NC2CCCCC2)C(=O)c2ccc(C)s2)cc1	-0.7%	2%	3.0	-27%	-12%	-4.7%[38.3 µM]	-1.7
Cc1cc(C)c(OCC(=O)OCC(=O)NCC2CCCCC2)c(C)c1	-0.9%	-2%	x	u	x	3.0%	-3.9
Oc1ccc(Nc2ccnc3cc(Cl)ccc23)cc1	x	2%	5.2	34%	-10%	0.4%	1.0
CCOC(=O)C1=C(N)n2c(s/c(=C/c3ccco3)c2=O)=C(C(=O)OC)C1c1ccco1 (configuration not stated)	-0.9%	2%	u	-8%	16µM*	-0.5%	-0.1
CNC(=O)NC(=O)C(c1ccccc1)N(C)CC1COc2ccccc2O1 (configuration not stated)	x	4%	1.0	10%	10%	4.2%	0.4
CC(=Nc1ccc(C)cc1)c1sc2ccccc2c1O	-2.4%	16%	u	-63%[inhibitor]	u	-4.9%[38.3 µM]	-1.6
COc1ccc(Cc2cnc(N)nc2N)cc1OC	0.8%	x	-7.3	x	-1%	-0.3%	x
CC1(C)CC(=O)C(Sc2nnc(-c3ccc(NS(C)(=O)=O)cc3)n2Cc2ccco2)C(=O)C1	19%	0%	-0.7	u	u	x	-2.8
Nc1nc(F)nc2c1ncn2[C@@H]1O[C@H](CO)[C@@H](O)[C@@H]1O	0.2%	-33%	3.0	x	-1%	-0.3%	-3.5
COC(=O)c1cccc(-n2nnnc2SCC(=O)Nc2cc(C)on2)c1	u	-5%	-0.2	18%	-12%	-1.2%	-4.7
N#CCCN(C(=O)CSc1nc2ccccc2c(=O)[nH]1)c1ccc(F)cc1	-2.3%	6%	x	-11%	x	-0.2%	-2.0
CC(=O)c1cccc(NC(=O)CN2C(=O)NC(C)(c3ccc4c(c3)OCCCO4)C2=O)c1 (configuration not stated)	-4.8%	8%	x	4%	x	-0.8%	-3.3
NCCCC[C@H]1CNC(=O)C(=O)N1CCc1cc(C(F)(F)F)cc(C(F)(F)F)c1	-2.2%	12%	5.1	x	9%	0.3%	-3.9
O=C(c1ccccc1)N1CCOC(O)(c2ccccc2)C1c1ccccc1 (configuration not stated)	0.0%	-4%	x	-43%[inhibitor]	x	-0.7%	3.0
CCc1noc(C)c1C(=O)N(CCOC)c1c(N)n(CC(C)C)c(=O)[nH]c1=O	-1.6%	-13%	0.5	-28%	7%	-0.2%	-3.6
CCOC(=O)C1=NN(c2ccccc2)C2C(=O)N(c3ccccc3OC)C(=O)C12 (configuration not stated)	-26%	-4%	-1.0	-26%	12%	0.5%	-5.0
CC(=O)NCCCCCCNC(C)=O	0.6%	2%	4.9&-0.9	x	27%&26%	0.0%	-5.0
Cc1cnc(CN(C)C(=O)C2CCC(=O)N(CCc3ccc(Cl)cc3)C2)[nH]1 (configuration not stated)	-0.7%	x	x	u	x	0.7%	-2.2
O=C(CSc1nnc2ccccn12)NCCc1ccc(F)cc1	-2.1%	5%	0.0	11%[15.4 µM]	11%	-0.9%	-0.5
Cc1cccc(NC(=S)NNC(=O)c2ccc(Br)o2)c1	-0.6%	-19%	0.5	22%	7%	1.7%[38.3 µM]	-6.4
O=C(c1ccc(Cl)cc1)N1CCC2CC1c1cc(-c3ccccc3)ccc12 (configuration not stated)	0.7%	-9%	x	x	x	9.8%	-0.8
CCOC(=O)C1(C)NC(c2cccs2)C2C(=O)N(c3ccc(OC)cc3)C(=O)C21 (configuration not stated)	x	x	1.8	4%[15.4 µM]	15%	-0.5%	-4.9
COc1cc(NC(=O)CSc2nccc(C)n2)c(C(=O)O)cc1OC	0.2%	-4%	-0.2	-50%[inhibitor]	u	2.4%	-1.4
New compounds follow
SMILES	ClpP mod	gsp antag	Menin MLL FP FL	gsp ag	Sfp PPTase inh	PINK1 expr mod	D2 ag
O=C(CCSCc1ccc(Cl)cc1)NCc1ccco1	x	7%	-8.3	4%[15.4 µM]	1%	0.6%	-3.7
O=C(Cc1ccc([N+](=O)[O-])cc1)N1CCc2ccccc2C1	x	8%	0.8	-28%[15.4 µM]	4%	1.9%	-1.6
Cc1ccc(NS(=O)(=O)c2cc(C(=O)N(C)C)ccc2C)cc1C	x	-12%	-0.5	6%[15.4 µM]	-7%	0.3%	-5.0
CC(C)(C)[C@@H]1C=C(C(N)=O)O[C@H](OCc2ccc(CO)cc2)C1	-1.1%	5%	4.1	x	6%	1.2%	-2.7
CC(=O)Nc1ccc(S(=O)(=O)NCCC(=O)OCc2nnc(-c3ccccc3)o2)cc1	-1.9%	12%	x	1%	x	-0.8%	-4.7
O=C(NCc1ccc(Cl)c(Cl)c1)c1ccc2c(c1)OCO2	-5.2%	6%	x	u	5%	1.8%	-1.8
S=C1NCCc2ccccc2C1c1ccccc1Cl (configuration not stated)	-1.3%	-4%	-0.4	-14%	5%	2.5%	-11
Cc1ccc(-n2c(SCC(=O)N3Cc4ccccc4CC3C(=O)O)nnc2-c2cccnc2)c(C)c1 (configuration not stated)	x	6%	3.5	21%	11%	2.3%	2.7
CCC(C)C(NC(=O)C(C)NC(=O)CNC(=O)OC(C)(C)C)C(N)=O (configuration not stated)	x	4%	1.0	-40%[inhibitor]	14%	0.1%	8.3
O=C(CCN1C(=O)c2ccccc2C1=O)NCc1ccco1	83%	6%	0.4	-7%	-16%	x	-3.0
CC(=O)c1ccc2c3c(cccc13)C(=O)N(CCc1ccccc1)C2=O	0.2%	-20%	u	-28%	1%	2.6%	0.9
CNC(=S)N(CCO)Cc1cc2cc3c(cc2[nH]c1=O)OCCO3	4.0%	6%	-7.9	-25%	-12%	3.1%	-5.2
COc1ccc(S(=O)(=O)N2CCC(C(=O)Nc3ccc(S(=O)(=O)N4CCCC4)cc3)CC2)cc1OC	x	-12%	x	-24%[15.4 µM]	x	-0.2%	-3.8
CCn1c(SCC(=O)NC(=O)Nc2ccc3c(c2)OCCO3)nnc1-c1cccs1	-3.3%	-12%	2.5	3%	-10%	-2.0%	-2.0
CN(C)CCNC(=O)c1cccc(-c2cnc3c(NC=O)cc(-c4cccc(C(F)(F)F)c4)cn23)c1	-18%	x	x	x	x	-1.1%	1.9

Source: PubChem BioAssay (National Center for Advancing Translational Sciences (NCATS))
